Compound activity (PubChem)
B2AR ag = activates human beta-2 adrenergic receptor causing internalization; P07550; Am2.2-beta2AR cells, FAP receptor internalization, flow cytometry; reference of the scale not given here; response, % (no concentration beside the values); 340,000 tested, 0.43% active; AID 504454;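 active means response above a set limit, near 3 SD of response in nonfluorescent compounds, cut at about 42% in these data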;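 further: stock transfer was 100 nL into about 11 µL; a reference agonist was the positive control; negative values mostly stem from fluorescent compounds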
ALR inh = blocks human ALR sulfhydryl oxidase activity; P55789; purified ALR, DTT oxidation, H2O2 HRP-luminol luminescence; inhibition, % (no concentration beside the values); 290,000 tested, 3.8% active;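 active means mean and each replicate at 75% or more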;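 further: stock transfer was 7.5 nL into about 7.5 µL; 0% = neutral wells and 100% = wells with inactivated enzyme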
Target sequence (P55789 whole entry, looked up): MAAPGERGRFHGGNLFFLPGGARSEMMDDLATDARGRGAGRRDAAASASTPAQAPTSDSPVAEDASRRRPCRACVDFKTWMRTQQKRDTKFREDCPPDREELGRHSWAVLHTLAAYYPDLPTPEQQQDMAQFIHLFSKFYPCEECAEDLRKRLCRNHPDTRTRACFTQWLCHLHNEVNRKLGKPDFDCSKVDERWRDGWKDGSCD
UCH37 DUB inh = human UCH37 deubiquitinating enzyme inhibition | purified proteasome/UCH37, Ub-AMC cleavage fluorescence | inhibition, % (concentration not given with the values) | 330,000 tested, 0.33% active | AID 588478;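 active means mean of two replicates above 20%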;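 further: 0% = compound-free wells with enzyme and 100% = wells lacking proteasome; stock transfer was 100 nL into about 20 µL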
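Reagent: Ub-AMC substrate; assay system: Proteasome-associated human UCH37 deubiquitinase; controls: no-proteasome and no-compound wells; read-out: % inhibition of Ub-AMC cleavage fluorescence; timing: 30 min preincubation with enzyme, 25 min cleavage at room temperature; signal: AMC fluorescence from Ub-AMC cleavage, excitation 355 nm, emission 460 nm; buffer or medium: Tris-HCl pH 7.4 plus ovalbumin, ATP-MgCl2, DTT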
Ecoli growth = blocks Escherichia coli growth | OD600, 23 h; stronger effect = lower value | OD600 absorbance (no concentration beside the values) | 330,000 tested, 0.21% active;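 active means OD600 absorbance below the run mean of sample wells minus 3.6 SD, in any replicate, cut at about 0.56 in these data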;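 further: stock transfer was 300 nL into about 60 µL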
HNF4A DNA FP = change in binding of human HNF4 alpha to DNA | HNF4a-FITC DNA binding, fluorescence polarization, 1 h | activity change, % at 10 µM | 360,000 tested, 0.3% active; in the data active means activity change above about 30%, passing the limit was not always enough;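 further: controls were the assay level and a saturating level of protein; the project sought stronger binding though the title names inhibitors; some compounds called inactive have numbers as strong as hits; positive values seem to mean higher polarization but the record does not say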
Target sequence (P41235 whole entry, looked up): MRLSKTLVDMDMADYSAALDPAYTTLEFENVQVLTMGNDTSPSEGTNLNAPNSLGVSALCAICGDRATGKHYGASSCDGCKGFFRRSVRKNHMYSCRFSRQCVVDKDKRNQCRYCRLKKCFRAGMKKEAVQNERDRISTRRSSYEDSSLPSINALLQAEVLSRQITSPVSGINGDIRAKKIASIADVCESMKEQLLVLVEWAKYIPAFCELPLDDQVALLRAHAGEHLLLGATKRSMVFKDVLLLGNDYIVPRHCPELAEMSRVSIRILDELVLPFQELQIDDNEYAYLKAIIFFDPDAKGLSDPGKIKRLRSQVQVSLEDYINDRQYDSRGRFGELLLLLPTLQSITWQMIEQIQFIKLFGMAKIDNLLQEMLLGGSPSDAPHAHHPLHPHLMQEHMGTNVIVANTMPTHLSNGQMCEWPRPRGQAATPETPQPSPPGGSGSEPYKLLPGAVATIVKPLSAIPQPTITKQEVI
LANA-H2B inh = blocks KSHV LANA binding to histone H2A/H2B. inhibition, % (no concentration beside the values). cell-free LANA-H2A/H2B peptide, fluorescence polarization. AID 2629. 320,000 tested, 0.6% active; in the data active means inhibition mostly above about 10%, no sharp cut-off; inactive means mostly below about 6.7%;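 further: stock transfer was 7.5 nL into about 10 µL; 0% = median of vehicle wells and 100% = median of positive control wells; one replicate is shown; the record names a cut of 25% in any replicate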
FGF22 binding = shifts melting point of recombinant human FGF22 | 340,000 tested, 1.5% active | calls only at 9.99 µM | recombinant FGF22 thermal shift, SYPRO orange fluorescence; percent of sucrose octasulfate shift, DMSO zero;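 active means melting point raised past a set limit in the mean and every replicate; three in four hits are not shown here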
Target sequence (Q9HCT0 whole entry, looked up): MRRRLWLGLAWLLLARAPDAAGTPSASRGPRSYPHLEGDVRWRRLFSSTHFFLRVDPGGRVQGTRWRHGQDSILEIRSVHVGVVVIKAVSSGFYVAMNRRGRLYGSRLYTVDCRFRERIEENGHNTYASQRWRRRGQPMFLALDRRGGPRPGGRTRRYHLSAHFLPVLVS
Starred values were filed as active, the others as inactive; i = inactive; nt = not tested or not shown; & = joins results of further samples. The list is partial, so the mix of outcomes need not match the whole.

Structure	B2AR ag	ALR inh	UCH37 DUB inh	Ecoli growth	HNF4A DNA FP	LANA-H2B inh	FGF22 binding
NP(=O)(OCCCCc1ccccc1)Oc1ccccc1Cl (stereo not given)	-7	0	0.8	0.7	-6.2	-2.0	i
CCOc1ccc(NC(=O)C2C3c4ccccc4C(c4ccccc43)C2C(=O)O)cc1 (stereo not given)	4	18	1.0	0.64	6.4	-4.6	i
Clc1ccc(C(c2ccccc2)c2ncc[nH]2)cc1 (stereo not given)	-7	-3	5.5	0.66	0.2	-0.9	i
CC1CN=C(NCc2ccc(F)cc2)S1 (stereo not given)	1	nt	-0.1	0.7	-1.9	-5.4	i
CN1C(=O)/C(=C\N2CCc3ccccc32)C(=O)NC1=S	-2	48	6.1	0.68	0.8	2.0	nt
O=C1CN(C(=O)CN2CCCCC2)C(c2ccccc2)c2cc(Br)ccc2N1 (stereo not given)	1	-7	0.8	0.72	-1.9	-2.6	nt
N#CC(c1ccccc1)N1CCOCC1 (stereo not given)	3	-2	1.6	0.7	-1.4	1.0	i
Cc1nn(Cc2ccccc2Cl)c(C)c1C(=O)OCC(=O)N1CC(C)OC(C)C1 (stereo not given)	2	-10	1.7	0.67	2.1	2.9	nt
C/C(=N\NC(=O)c1ccncc1)c1c(O)n(Cc2ccccc2)c(=O)[nH]c1=O	7	13	11	0.64	17	4.9	i
CN1C(=O)NC(=O)C2(CCCC2)C1=O	4	nt	-1.3	0.68	-1.9	nt	i
C=CCn1c(O)c(/C=C2/C=CC=N2)c(=O)[nH]c1=O	-5	29	2.7	0.72	-1.8	5.6	i
Cc1ccc(-n2cc(CNC(C)Cc3cnccn3)c(-c3cccc(C)c3)n2)cc1 (stereo not given)	-10	nt	2.9	0.68	-2.2	-0.9	i
O=c1c2ccccc2nc(-c2ccccc2)n1-c1ccccn1	3	nt	1.0	0.71	1.9	-2.8	i
CN(C)CCSCc1nnc2n1-c1ccc(Cl)cc1C(c1ccccc1Cl)=NC2	-9	-6	1.7	0.68	0.6	-2.3	i
O=C(C[N+]12CCC(CC1)C(C(O)(c1ccccc1)c1ccccc1)C2)c1ccc(Br)cc1 (stereo not given)	-6	-3	5.8	0.67	-0.1	-0.3	i
COc1ccc(C(=O)O/N=C(/C(N)=O)P(=O)(OC(C)C)OC(C)C)cc1	3	25	nt	nt	0.1	-0.2	i
Cc1ccc(C(=O)C2(C)N(O)C(C)C(c3cccs3)=[N+]2[O-])cc1 (stereo not given)	9	20	3.0	0.67	-0.3	2.1	i
COc1ccc(OCC(=O)N2CCN(Cc3nc4cc([N+](=O)[O-])ccc4n3C)CC2)cc1	6	nt	5.3	0.73	6.2	-1.3	nt
C[C@H](NC(=O)N1C[C@H]2C[C@@H](C1)c1cccc(=O)n1C2)C(=O)Nc1ccccc1F	32	nt	-0.4	0.75	1.0	-4.4	i
CC1([N+](=O)[O-])COP(=O)(Nc2cccc(Br)c2)OC1 (stereo not given)	i	nt	nt	nt	2.7	nt	i
N=c1sccn1Cc1ccc(Cl)cc1Cl	-1	10	1.2	0.69	-2.6	3.6	nt
CCOP(=O)(C#CC(C)(C)C)C(C)(O)c1ccccc1 (stereo not given)	-1	-10	1.9	0.79	3.0	-7.4	nt
CCCN(CC#CCOc1ccc(OC)cc1)CCC	-9	-4	3.3	0.74	-1.3	0.6	nt
O=c1c2ccccc2nc(SCC2CCCCO2)n1-c1ccccc1 (stereo not given)	-9	-1	1.0	0.7	0.8	-0.5	nt
CP(=O)(Nc1ccc(Cl)cc1)c1nc2c(s1)CCCC2 (stereo not given)	-4	-4	0.9	0.68	1.5	5.2	i
O=[N+]([O-])c1cc(F)c(N2CCCCC2)cc1Br	-12	6	2.9	0.71	1.1	0.8	i
Cc1nc2ccccc2c(=O)n1-c1ccncc1	-4	nt	1.7	0.69	0.1	2.7	i
COc1ccc(-c2cc(C(=O)N3CCC4(CC3)OCCO4)c3ccccc3n2)cc1	7	-2	i	0.6	1.6	3.8	i
CC1CCC(C(C)C)C(OC(=O)Cn2c(COc3ccccc3)[n+](C)c3ccccc32)C1 (stereo not given)	11	-7	7.2	0.59	0.1	-5.4	nt
COc1ccc(N2CC(C(=O)Nc3nnc(Cc4ccccc4)s3)CC2=O)cc1 (stereo not given)	-1	nt	0.1	0.62	-1.5	4.2	i
CCCN(CCC)C1CCc2cccc(O)c2C1 (stereo not given)	2	62	4.1	0.71&0.71	0.1	-1.4	i
COc1ccccc1-n1c(/C=C/c2ccc(O)cc2)nc2ccccc2c1=O	15	7	-18	0.65	7.4	-4.9	i
O=C1CN=C(c2ccc(Br)cc2)c2oc3ccccc3c2N1	-13	-12	1.3	0.77	2.6	-0.4	nt
O=C(c1cccs1)N1C2CCC1CC(O)(c1cccnc1)C2 (stereo not given)	-8	2	0.2	0.7	-1.7	2.2	nt
O=[N+]([O-])c1ccc2c(c1)Cc1cc(O)ccc1-2	0	nt	2.9	0.61	-0.5	nt	i
O=[N+]([O-])c1[nH]cnc1Br	-1	nt	11	0.67	4.4	nt	i
O=c1cccc2n1C[C@H]1C[C@@H]2CN2CCCC[C@@H]12	5	8	3.8	0.73	-2.1	-18	i
CCC1(O)CCC2C3CCC4=CC(=O)CCC4C3CCC21CC (stereo not given)	-3	nt	3.4	0.68	-3.5	nt	i
COC(=O)C1=C(c2ccc(Cl)c(C(F)(F)F)c2)C[C@@H]2CC[C@H]1N2C(=O)NCCCOC(C)C	5	-2	5.3	0.75	3.6	0.8	nt
COc1ccc(CCNC2CCCCC2)cc1	-7	-11	0.5	0.71	1.4	-1.2	i
Cc1cccc(-n2c(=S)[nH]c3ccccc3c2=O)n1	-8	46	0.8	0.69	3.8	-0.6	nt
COc1ccccc1CCNC1CCCC(C)C1 (stereo not given)	-9	-2	1.2	0.7	2.8	-0.2	nt
COc1ccccc1N1CCN(Cc2cccc(Br)c2)CC1	-1	29	2.3	0.66	1.0	-6.5	i
CC1(C)NC(=O)[C@H]2CCCN21	-4	0	2.6	nt	0.0	-3.7	i
Cc1cccc(C(=O)Nc2ccc(Cl)cc2C(=O)c2ccccc2)c1	-1	-6	6.3	0.73	7.5	1.5	nt
CCOC(=O)C(=CNc1ccc(C(O)(C(=O)OCC)C(F)(F)F)cc1C)C(=O)OCC (stereo not given)	6	nt	1.5	0.69	-2.9	5.9	nt
Cc1cc(OCc2nn[nH]n2)c2c3c(c(=O)oc2c1)CCC3	-3	7	-314	0.66	0.9	-0.6	nt
CCOC(=O)c1c(C)n(Cc2ccccc2)c2ccc(O)cc12	14	-1	0.7	0.7	-1.8	0.4	i
NC(=O)c1ccsc1NC(=O)COC(=O)Cc1ccccc1	-7	31	2.0	0.63	2.3	-1.8	i
CC(C)(C)C(=O)O[C@H]1CC[C@@]2(C)C(=CC(=O)C3C2CC[C@]2(C)C(=O)CCC32)C1 (stereo not given in full)	-2	-7	-0.5	0.72	-6.2	-4.0	i

Next part:
Structure	B2AR ag	ALR inh	UCH37 DUB inh	Ecoli growth	HNF4A DNA FP	LANA-H2B inh	FGF22 binding
CC(=O)Nc1cc(C(=O)N2CCC3(CC2)OCCO3)ccc1S(=O)(=O)c1ccc(C)cc1	-16	-5	-1.1	0.74	1.8	1.8	nt
COc1ccc(C2SCC(=O)Nc3c2c(C)nn3C2CCOC(C)(C)C2)cc1OC (stereo not given)	8	-5	2.3	0.72	0.6	2.9	nt
COc1ccccc1C(=O)C1CCCN(Cc2cnc(C)s2)C1 (stereo not given)	-8	2	4.7	0.69	-4.8	-5.5	i
Cc1cccc(N=Cc2c(O)n(-c3ccccc3C)c(=O)[nH]c2=O)c1	-3	-3	8.4	0.73	0.8	6.2	i
CCCCCCOC(=O)c1ccccc1N	11	-6	-30	0.69	0.1	-1.4	nt
CC12Cc3cnoc3C=C1CCC1C2CCC2(C)C1CCC2(C)O (stereo not given)	-3	nt	-0.4	0.65	-2.8	nt	i
O=C(OCCN1CCOCC1)C1(c2ccccc2)CCCC1	5	-4	6.0	0.65	0.2	-0.1	i
CC(C)(C)C(=O)O[C@H]1CC[C@@]2(C)C(=CC(=O)C3C2CC[C@]2(C)C(=O)[C@H](O)CC32)C1 (stereo not given in full)	5	0	-3.6	0.71	0.8	0.1	i
CCN(CC(=O)Nc1ccc(NC(C)=O)cc1)C(=O)CSC(c1ccccc1)c1ccccc1	6	-5	3.0	0.68	1.3	-9.5	i
CCOC(=O)C1SC2(C(F)F)CC1(O)c1c(c(OC)c3occc3c1OC)O2 (stereo not given)	1	-30	2.4	0.59	0.0	2.4	nt
Cc1ccc(C(=O)c2cc(Br)ccc2N)cc1	6	-5	0.6	0.64	1.1	-1.2	i
COc1ccc(C(=O)OC2CC[C@@]3(C)C4CCC5[C@]6(O)CC(O)[C@@]7(O)C(CN8CC(C)CCC8[C@@]7(C)O)[C@]6(O)C[C@@]53O[C@]24O)cc1OC (stereo not given in full)	-10	-1	-0.6	0.69	-4.3	-1.2	i
COc1ccc(-n2c(SCCN(C)C)nc3ccccc3c2=O)cc1	2	-7	2.9	0.7	6.6	-0.7	i
CC1CCCCC1NC(=O)CNC(=S)N1CC2CC(C1)c1cccc(=O)n1C2 (stereo not given)	5	nt	3.7	0.7	2.2	-1.6	i
COc1ccc(CCN)cc1O	-7	3	2.5	0.66	-2.3	-4.7	i
O=C1C2CCCN2C(c2ccccc2)N1c1ccccn1 (stereo not given)	-2	-2	1.3	0.69	-0.3	-2.8	nt
CCN1CCN(Cc2cc(Br)cc(OC)c2O)CC1	-4	29	4.6	0.69	11	5.3	nt
COC(=O)C1=C(c2ccc(C(C)=O)cc2)C[C@@H]2CC[C@H]1N2C(=O)NCc1ccco1	21	-5	2.4	nt	-8.5	1.4	i
Cc1ccc(-n2c(O)c(C=NCC3CCCO3)c(=O)[nH]c2=O)c(C)c1 (stereo not given)	-2	-6	2.7	0.7	2.0	-8.8	i
O=C1NC(=O)C(CCc2ccncc2)(Cc2ccc([N+](=O)[O-])cc2)C(=O)N1	24	1	3.0	0.69	3.5	1.8	i
COc1ccc(N2CCN(CCc3ccncc3)CC2)cc1	10	71	2.6	0.67	-4.2	-4.1	i
Cc1ccccc1NC(=O)COC(=O)c1cc(C)n(C2CC2)c1C	4	6	0.4	0.7	0.1	4.2	i
CN1C2c3ccccc3C3C4c5ccccc5C(C31)C(C2[N+](=O)[O-])N4C (stereo not given)	-5	6	3.8	0.7	-1.4	6.4	i
CCOC(=O)c1c(C)c(P(=S)(N2CCOCC2)N2CCOCC2)n(C)c1C	-4	-4	2.3	0.74	-3.6	7.3	nt

Fetched by structure from the entries so far, 6 records:
Structure	B2AR ag	ALR inh	UCH37 DUB inh	Ecoli growth	HNF4A DNA FP	LANA-H2B inh	FGF22 binding
Cc1ccc(-n2c(O)c(C=NCC3CCCO3)c(=O)[nH]c2=O)c(C)c1 (stereo not given)	-2	-6	2.7	0.7	2.0	-8.8	i
COc1ccc(CCN)cc1O	-7	3	2.5	0.66	-2.3	-4.7	i
CCOC(=O)c1c(C)c(P(=S)(N2CCOCC2)N2CCOCC2)n(C)c1C	-4	-4	2.3	0.74	-3.6	7.3	nt
COc1ccc(N2CCN(CCc3ccncc3)CC2)cc1	10	71	2.6	0.67	-4.2	-4.1	i
COc1ccc(-n2c(SCCN(C)C)nc3ccccc3c2=O)cc1	2	-7	2.9	0.7	6.6	-0.7	i
CC(C)(C)C(=O)O[C@H]1CC[C@@]2(C)C(=CC(=O)C3C2CC[C@]2(C)C(=O)[C@H](O)CC32)C1 (stereo not given in full)	5	0	-3.6	0.71	0.8	0.1	i
